RE007 growth inh = qHTS Assay for Inhibitors of the HIV-1 protein Vpr; Potency, µM (series often up to 92.2 µM), inactives show at the highest dose activity change, negative = less growth; AID 651644, 2012; 0.21% of 360,000 active; S. pombe RE007 Vpr strain, BacTiter-Glo ATP luminescence, 24 h; control for the full effect not named in the record; active = well fitted falling curve with a large enough effect; inconclusive = small, poorly fitted or top-dose-only effect; inactive = no such curve, though single readings can be large or run the other way;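 note: % is set by controls: 0 for no effect and ±100 for the full control effect; nearly all actives have a fitted effect of over 50% in size; the assay follows cell death caused by Vpr and the record does not say whether a fall means rescue or toxicity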
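Fission yeast strain RE007, carrying one chromosomally integrated HIV-1 vpr copy, was seeded at OD 0.01 in PMG+AL medium with 23 nL pinned compound. After 24 h at 30 °C and 99% humidity, viability was read by BacTiter-Glo luminescence.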
SARS PLpro yeast = qHTS of Yeast-based Assay for SARS-CoV PLP; Potency, µM (highest dose often 32.9 µM), for the others: at the top dose activity, positive = growth rescue; S. cerevisiae expressing SARS-CoV PLpro, growth rescue; control for the full effect not named in the record; 0.19% of 330,000 active; note: 0% is about no effect; nearly all actives have a fitted effect of over 55% in size; growth read by luminescence after 48 h
Lassa entry inh = qHTS for Inhibitors of binding or entry into cells for Lassa Virus; Lassa virus pseudotype entry inhibition, cell reporter; control for the full effect not named in the record; Potency, µM (series often up to 37.9 µM), for inactives: at the highest dose activity change, negative = inhibition, most hits filed as inhibitors; 1.2% of 300,000 active; active means well fitted inhibition curve with a large enough effect; inconclusive means small, poorly fitted or top-dose-only effect, or effect the other way; inactive means flat fitted curve, though single readings scatter; tested in HEK293 cells; note: % is set by controls: 0 for no effect and ±100 for the full control effect; nearly all actives have a fitted effect of over 50% in size; luciferase read-out
NS1 function inh = qHTS Assay for Inhibitors of Influenza NS1 Protein Function | Potency, µM (highest dose often 46.1 µM), inactives show at the top dose activity, positive = more growth | 0.4% of 270,000 active | S. cerevisiae slowed by influenza A NS1, growth recovery by OD600; note: actives are rising curves; nearly all actives have a fitted effect of over 50% in size
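OD600 was taken as the measure of yeast growth restored by compound in an NS1-expressing S. cerevisiae strain. Cells had been washed out of glucose medium and diluted 1:100 into galactose -URA medium, pH 6.0.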
Marburg entry inh = qHTS for inhibitors of binding or entry into cells for Marburg Virus | AID 540276, 2011 | Marburg virus pseudotyped entry inhibition, cell reporter; control for the full effect not named in the record; about a third of the inactives were read at about 46 µM | 1.8% of 300,000 active | Potency, µM (top dose mostly 37.8 µM), inactives show at the top dose activity change, negative = inhibition, actives largely listed as inhibitors; active = well fitted inhibition curve with a large enough effect; inconclusive = small, poorly fitted or top-dose-only effect, or effect the other way; inactive = flat fitted curve, though single readings scatter; tested in HEK293 cells; about a fifth of its hits are not listed in these tables; note: % is set by controls: 0 for no effect and ±100 for the full control effect; luciferase read-out
Cruzain inh Det = qHTS Assay for Promiscuous and Specific Inhibitors of Cruzain (with detergent); Potency, µM, for inactives: max response, negative = inhibition, most hits filed as inhibitors; Cruzipain (Trypanosoma cruzi), P25779; purified cruzain, Z-FR-AMC fluorescence, 0.01% Triton; 0.43% of 200,000 active; active = well fitted curve in the direction sought with a large enough effect; inconclusive = small, poorly fitted or top-dose-only effect, or another doubt; inactive = no such curve, though single readings can be large; an effect the other way counts as inactive or inconclusive;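 note: plate controls were neutral wells for no effect and buffer without enzyme for full effect; nearly all actives have a fitted effect of over 40% in size; top concentration of the series not given in the record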
Target sequence (P25779 123-467 limits assumed): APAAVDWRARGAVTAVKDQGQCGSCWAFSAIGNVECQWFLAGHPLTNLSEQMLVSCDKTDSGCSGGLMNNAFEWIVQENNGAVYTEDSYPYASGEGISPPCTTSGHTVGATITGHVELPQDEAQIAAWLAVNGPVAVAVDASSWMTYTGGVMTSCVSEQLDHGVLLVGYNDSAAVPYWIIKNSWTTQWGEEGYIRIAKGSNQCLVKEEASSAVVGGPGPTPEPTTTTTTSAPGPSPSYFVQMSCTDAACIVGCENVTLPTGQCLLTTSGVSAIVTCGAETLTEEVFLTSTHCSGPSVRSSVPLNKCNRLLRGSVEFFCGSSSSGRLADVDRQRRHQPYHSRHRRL
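Steps: dispense cruzain (1.5 nM final) in acetate buffer pH 5.5 with DTT and 0.01% Triton X-100; pin-transfer compounds; incubate 15 min RT; add Z-FR-AMC (2 uM final); read fluorescence every 30 s, using the 60 s intensity change.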
Cruzain inh noDet = qHTS Assay for Promiscuous and Specific Inhibitors of Cruzain (without detergent) | Cruzipain (Trypanosoma cruzi), P25779 | purified cruzain, Z-FR-AMC fluorescence, no detergent | Potency, µM, for inactives: max response, negative = inhibition, actives largely listed as inhibitors | 2.3% of 200,000 active; active = well fitted curve in the direction sought with a large enough effect; inconclusive = small, poorly fitted or top-dose-only effect, or another doubt; inactive = no such curve, though single readings can be large; an effect the other way counts as inactive or inconclusive;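 note: plate controls were enzyme without inhibitor for no effect and buffer without enzyme for full effect; nearly all actives have a fitted effect of over 40% in size; top concentration of the series not given in the record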
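Detergent-free condition (0.00005% Triton X-100) in acetate buffer pH 5.5 with DTT. 1.5 nM enzyme and compound were pre-mixed 15 min, then 2 uM Z-FR-AMC substrate added; reaction progress from fluorescence change between first and third reads (60 s).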
2A StopGo = High Throughput Screening for Foot and Mouth Disease Virus Antivirals; human cells with a luciferase reporter of 2A StopGo recoding; control for the full effect not named in the record; Potency, µM (titrated, usually from 57.9 µM), for the others: at the top dose signal change, negative = less light; 1.2% of 410,000 active; active = well fitted falling curve with a large enough effect; inconclusive = small, poorly fitted or top-dose-only effect; inactive = no such curve, though single readings can be large or run the other way; tested in HEK293T cells; note: % is set by controls: 0 for no effect and ±100 for the full control effect; nearly all actives have a fitted effect of over 45% in size; luciferase light after 4 h
Numbers without * were called inactive; ? = inconclusive; / = not tested or not shown; & = joins results of further samples; [ ] = another dose, or the depositor's remark. Unless noted, calls come from the whole dose curve; as a rule, active means well fitted rising curve with a large enough effect; inconclusive means small, poorly fitted or top-dose-only effect; inactive means no such curve, though single readings can be large or run the other way. Potency is the fitted concentration of half-maximal effect. The order is random. About 4.7% of those tested had a hit in this group.

canonical_smiles	RE007 growth inh	SARS PLpro yeast	Lassa entry inh	NS1 function inh	Marburg entry inh	Cruzain inh Det	Cruzain inh noDet	2A StopGo
Cc1ccc(S(=O)(=O)N2CC(C)N(S(C)(=O)=O)C2)cc1 (stereo unspecified)	-2.5%	5.6%	?	10.1%	3.1%[46.1 µM]	/	/	-18.1%
O=C(NC1CCCCC1)c1cc(Cl)ccc1[N+](=O)[O-]	-1.7%	8.8%	?	0.1%	0.9%	2.3%	6.5%	7.7%
COCC(C)NC(=O)c1cc2cccc([N+](=O)[O-])c2[nH]1 (stereo unspecified)	-8.3%	-2.6%	-24.1%	-3.4%	20.6%	/	/	-6.0%
CC(C)CCNC(=O)c1ccc2c(c1)nc1n2CCCCC1	/	/	?	/	/	0.8%	-3.2%	-24.6%
CCC(C)(C)NC(=O)C(c1ccncc1)N(Cc1cccs1)C(=O)Cn1nnc2ccccc21 (stereo unspecified)	29.8%	2.1%	-6.2%	-10.5%	17.2%&17.2%	-2.4%	15.1%	2.3%
COc1ccc(-c2noc(CN(C)C(=O)c3ccoc3C)n2)cc1	17.3%	1.1%	-5.4%[46.1 µM]	-5.3%	?	/	/	14.0%
COC(=O)C(C)n1nnc2sc(-c3ccccc3)cc2c1=O (stereo unspecified)	-8.7%	1.1%	?	/	?	-10.6%	-7.7%	55.4%&-2.4%[activator]
CCOC(=O)Cc1cnc(NC(=O)c2ccccc2)s1	-23.5%	0.0%	?	-16.1%	-2.9%	-2.4%	8.5%	16.8%
Cc1ccc(S(=O)(=O)Nc2cccc(C(=O)NCC3(N4CCCCC4)CCCCC3)c2)cc1F	11.4%	1.0%	?	/	?	/	/	-13.8%
COc1ccc(Cl)cc1NC(=O)c1c(NCc2ccc(C)o2)sc2c1CCCCC2	/	/	15.8%[46.1 µM]	/	/	-12.6%	-1.7%	0.0%
Cc1cc(NC(=O)CCC(=O)N(c2ccccc2)C2(C(=O)NC3CCCCC3)CCCC2)no1	-11.1%	-1.2%	?	-11.8%	?	-15.9%	?	-24.6%
COc1ccc([N+](=O)[O-])cc1N(CC(=O)NCCSc1ccccc1)S(C)(=O)=O	-1.4%	0.5%	-22.3%	-7.0%	4.5%[46.1 µM]	/	/	12.5%
COc1cccc(-c2nn3c(=O)cc(CN4CCN(S(=O)(=O)c5ccc(C)cc5)CC4)nc3s2)c1	/	/	3.8%[46.1 µM]	/	/	3.2%	-1.8%	-5.8%
CCC12CN3CC(CC)(CN(C1)C3c1c[nH]c3ccccc13)C2=O (stereo unspecified)	/	/	?	/	/	-3.9%	7.8%	-27.7%
Cc1nc(Nc2ccc(Cl)cc2)c(C#N)c(=O)[nH]1	9.2%	-4.0%	/	7.0%	/	/	/	-14.1%
COCCNS(=O)(=O)c1cc(OC)ccc1OC	-7.9%	0.0%	21.1%	4.6%	9.6%[14.2 µM]	/	/	53.2%[activator]
Cc1ccccc1NC(=S)N(Cc1ccco1)C(C)c1ccccn1 (stereo unspecified)	-7.6%	-3.3%	7.3%	/	3.4%[46.1 µM]	/	/	-3.0%
Cc1ccc(OCC(=O)Nc2ccc3nc(Nc4cccc(Cl)c4)cc(C)c3c2)cc1	/	/	?	/	0.0%[46.1 µM]	2.8%	20µM*	-22.4%
CC(C)N1CCc2c(sc(NC(=O)CN3C(=O)c4ccccc4C3=O)c2C(N)=O)C1	2.1%	-1.1%	8.6%[46.1 µM]	13.6%	16.4%[46.1 µM]	/	/	-3.6%
COc1ccc(NC(=O)C2CCN(S(=O)(=O)c3ccc4c(c3)CC(C)N4C(C)=O)CC2)cc1OC (stereo unspecified)	0.7%	-2.3%	/	3.8%	/	/	/	-7.6%
Cc1cc(C(=O)OCC(=O)N2CCC(c3ccccc3)=N2)ccc1[N+](=O)[O-]	0.0%	0.5%	5.6%	/	0.3%	/	/	-23.5%
C=CCOc1cccc(C2c3c(oc4ccc(F)cc4c3=O)C(=O)N2CCCN2CCOCC2)c1 (stereo unspecified)	-14.5%	-0.3%	/	?	/	/	/	-14.7%
Cc1ccc(COc2ccc(/C=N/NC(=O)CN3CCCCC3)cc2)cc1	0.3%	-3.4%	-9.5%	/	?	/	/	34.6%[activator]
O=C(Nc1ccccc1)N1CCN(C(=O)c2nsc3ccccc23)CC1	/	/	6.7%[46.1 µM]	/	/	-4.7%	-0.3%	0.3%
Cc1cccc(N2CCN(S(=O)(=O)c3ccc(-c4cc(C)no4)s3)CC2C)c1 (stereo unspecified)	8.5%	15.1%	?	1.2%	19.4%[46.1 µM]	/	/	-17.4%
O=c1oc2c(CN3CCCCC3)c(O)ccc2c2c1CCCCC2	-5.1%	2.9%	13.7%	-4.2%	-11.5%	?	?	4.4%
COc1ccc(C(=O)NC(=O)COC(=O)C2CC2C)cc1 (stereo unspecified)	12.6%	0.4%	20.0%	/	-1.4%	/	/	17.7%
O=C(C1CC1)N1CCc2cc(Br)cc(S(=O)(=O)Nc3ccc(F)c(F)c3)c21	/	/	?	/	?	-4.4%	6.5%	-54.8%
CC(C)=NNc1ncnc2nc[nH]c12	-1.2%	/	-18.1%	2.8%	1.6%	3.1%	2.4%	13.8%
O=C(C/C(=N\NC(=O)c1ccccc1Br)C(F)(F)F)c1cccs1	0.5%	2.1%	?	20.9%	?	-2.4%	?	-15.8%
CC1(C)CC(NC(=O)c2cc(Cl)ccc2Cl)CC(C)(C)N1	5.5%	2.9%	24.9%	-5.5%	19.3%	/	/	-8.7%
COc1ccc(C(=O)NC2CCSc3ccccc32)cc1S(=O)(=O)N1CCOCC1 (stereo unspecified)	-4.4%	-1.7%	8.1%	/	29.8%	/	/	9.5%
COc1c(F)c(F)c(C(=O)Nc2ccc(NC(=O)c3ccco3)cc2)c(F)c1F	-10.2%	-3.7%	11.6%	-4.7%	12.4%[46.1 µM]	-1.8%	?	-16.9%
O=C(NCCc1ccccc1)Nc1ccc(Cl)cc1	16.9%	-4.5%	-20.5%	-5.0%	?	-1.1%	4.9%	26.0%
N#CC(=C(O)COC(=O)Cc1c[nH]c2ccccc12)c1nc2ccccc2[nH]1	12.6%	/	0.3%[46.1 µM]	/	14.0%[46.1 µM]	/	/	11.7%
O=C(COc1ccc(Br)cc1)NNC(=S)NCc1ccccc1	1.9%	-2.5%	-20.4%	9.0%	-13.3%[46.1 µM]	/	/	9.5%
O=C(COC(=O)Cc1cccc(C(F)(F)F)c1)NC(=O)NC1CCCC1	5.8%	-1.2%	-1.7%	/	29.7%	/	/	-18.7%
Cc1ccccc1-n1c(Cn2c(=O)sc3ccccc32)nnc1SCC(=O)N1CCCC1	-2.4%	28.2%	/	0.9%	0.4%	2.1%	5.8%	14.7%
CCn1cc(CCC(=O)NCc2cccc(OC)c2OC)c2ccccc21	-4.8%	2.3%	4.9%	0.2%	?	/	/	-28.2%
COc1cccc2cc(C(=O)N3CCN(c4cc(C)ccc4C)CC3)c(=O)oc12	/	/	-1.7%[46.1 µM]	/	2.5%[46.1 µM]	-1.1%	-3.9%	7.8%
O=C(NCc1ccccn1)c1cc(-n2cnnc2)ccc1Cl	9.1%	11.3%	1.4%	0.5%	12.8%	5.5%	-1.7%	14.7%
CCCCNC(=S)N(C)/N=C/c1c(F)c(F)c(F)c(F)c1F	-17.0%	-15.4%	21.6%	-0.9%	5.3%	-8.1%	-8.9%	?
COC(C[C@@H](O)CC(=O)[C@H](C)OCc1ccccc1)OC	-17.1%	1.9%	/	?	/	/	/	-14.9%
C=CCOc1c2ccc(C(=O)NCc3ccc(C)cc3)cc2nn1C	5.0%	15.0%	/	1.5%	/	9.0%	5.2%	-2.8%
CCOC(=O)c1c(C(C)(C)C)oc2ccc(OCC#N)cc12	-4.1%	-18.2%	-17.8%	-47.0%	-11.0%	-7.8%	4.1%	?
Cc1cc(C)cc(NC(=O)Cn2nnc(-c3nc(-c4ccncc4)no3)c2N)c1	/	/	17.1%[46.1 µM]	/	/	-1.8%	13.5%	-16.3%
CN(C)c1cccc(-c2nnc(SCCCC#N)o2)c1	6.7%	-9.3%	?	1.2%	?	1.7%	9.2%	-11.5%
CC(C)CCN(CCC(C)C)CC(O)Cn1c2ccccc2c(=O)c2ccccc21 (stereo unspecified)	0.0%	0.3%	/	-6.7%	/	/	/	?
CCc1cccc(C)c1NC(=O)CSc1nc2ccc(N3C(=O)c4ccccc4C3=O)cc2s1	-1.4%	-2.0%	-3.9%	8.3%	2.3%	5.0%	?	-8.8%
CCc1ccc(NC(=O)NCCCN2CCCC2=O)cc1	-0.1%	7.8%	/	4.6%	/	/	/	35.0%[activator]

Carrying on:
canonical_smiles	RE007 growth inh	SARS PLpro yeast	Lassa entry inh	NS1 function inh	Marburg entry inh	Cruzain inh Det	Cruzain inh noDet	2A StopGo
COc1ccc(-n2c(C)cc(/C=C3\SC(=S)NC3=O)c2C)cc1	7.1%	1.3%	/	-5.4%	/	/	/	57.4%[activator]
Cc1ccc(C2CC(C(F)(F)F)n3ncc(C(=O)NCc4ccco4)c3N2)cc1 (stereo unspecified)	6.0%	-4.2%	16.3%	-5.5%	?	-5.8%	18.5%	-7.4%
CC(=O)c1ccc(NC(=O)Cn2c(-n3nc(C)cc3C)nc(C)c(C)c2=O)cc1	/	/	6.1%[46.1 µM]	/	/	-0.7%	8.3%	-22.4%
Cc1[nH]nc2c1C(c1ccc(OC(=O)c3ccco3)cc1)C(C#N)=C(N)O2 (stereo unspecified)	-0.1%	3.9%	7.7%	-2.1%	-2.1%	1.4%	-2.4%	-14.0%
